Rce1 inh: inhibitors of yeast Ras-converting enzyme. Q03530. yeast membranes, quenched prenylated peptide cleavage fluorescence. calls only. hit rate 0.27% among 290,000;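 active means fall in fluorescence gain of 50% or more versus controls, with final raw signal at or below 3038400; inconclusive means same 50% fall but final raw signal above 3038400; inactive means fall in fluorescence gain under 50%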;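 further: plate controls were neutral control wells for no effect and wells lacking membranes for full effect; tested at 10 µM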
Target sequence (Q03530 whole entry, looked up): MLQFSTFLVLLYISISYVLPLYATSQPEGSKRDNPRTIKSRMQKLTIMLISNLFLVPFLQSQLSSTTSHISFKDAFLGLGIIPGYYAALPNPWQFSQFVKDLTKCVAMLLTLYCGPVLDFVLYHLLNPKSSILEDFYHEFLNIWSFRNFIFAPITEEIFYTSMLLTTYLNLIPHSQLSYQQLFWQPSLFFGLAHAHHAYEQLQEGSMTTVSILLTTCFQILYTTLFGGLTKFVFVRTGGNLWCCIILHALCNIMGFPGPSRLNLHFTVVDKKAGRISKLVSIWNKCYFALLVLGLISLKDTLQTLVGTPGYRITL
eIF4H FP inh: inhibitors of RNA binding by human eIF4H; Q15056; eIF4H fluorescence polarization binding assay; inhibition, % at 35 µM; hit rate 0.94% among 290,000; AID 2012;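 active means 50% or more with normal probe brightness, or confirmed in later tests; inconclusive means above 50% with abnormal brightness, or retests that disagree; inactive means below 50% or failed in later tests; about a fifth of its hits are not listed in these tables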;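 further: calls also rest on retests at 20 µM and on dose response follow-up; 0% = protein and probe with vehicle and 100% = probe without protein; strong numbers were not always called active; many hits fall short of the cut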
MT1-MMP act inh: blocks activation of human MT1-MMP; GFP/RFP ratio change, % at 20 µM; P50281; hit rate 0.061% among 360,000; HT1080 RFP-PRO-GFP cells, GFP/RFP ratio fluorescence, overnight; percent of plate control window, DMSO zero; AID 651647;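 active means GFP/RFP ratio change of at least 30% with cell ATP level not reduced by more than half and red fluorescence within 50% of control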; further: strong numbers were not always called active
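Material – HT1080 RFP-PRO-GFP cells · Control set – DMSO wells and RFP-L50D-GFP cells · Incubation – overnight cell settling, then overnight compound exposure, 37 °C, 5% CO2 · Compound dosing – single-point 20 µM compound, 1% DMSO · Read-out – GFP/RFP fluorescence ratio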
HIV Env fusion: HIV envelope-mediated fusion inhibition; inhibition, % at 12.3 µM; HeLa-JRFL Env/CEM21 cell fusion, luciferase; hit rate 1.1% among 360,000; AID 651610;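 active means mean replicate inhibition score of at least 50 and every replicate individually at or above 50; inconclusive means only one of the two criteria met; inactive means mean below 50 and not all replicates reaching 50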;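 further: 0% = plate neutral controls and 100% = maraviroc near 300 nM; one replicate is shown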
PABP FP inh: blocks human PABP binding to poly(A) RNA. fluorescence polarization. P11940. hit rate 1% among 290,000. inhibition, % at 35 µM. AID 2014;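 active means 50% or more with normal probe brightness, or confirmed in later tests; inconclusive means above 50% with abnormal brightness, or retests that disagree; inactive means below 50% or failed in later tests; about a fifth of its hits are not listed in these tables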;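 further: calls also rest on retests at 20 µM and on dose response follow-up; controls were probe without protein and protein plus probe with vehicle; some compounds called inactive have numbers as strong as hits; many hits fall short of the cut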
Target sequence (P11940 whole entry, looked up): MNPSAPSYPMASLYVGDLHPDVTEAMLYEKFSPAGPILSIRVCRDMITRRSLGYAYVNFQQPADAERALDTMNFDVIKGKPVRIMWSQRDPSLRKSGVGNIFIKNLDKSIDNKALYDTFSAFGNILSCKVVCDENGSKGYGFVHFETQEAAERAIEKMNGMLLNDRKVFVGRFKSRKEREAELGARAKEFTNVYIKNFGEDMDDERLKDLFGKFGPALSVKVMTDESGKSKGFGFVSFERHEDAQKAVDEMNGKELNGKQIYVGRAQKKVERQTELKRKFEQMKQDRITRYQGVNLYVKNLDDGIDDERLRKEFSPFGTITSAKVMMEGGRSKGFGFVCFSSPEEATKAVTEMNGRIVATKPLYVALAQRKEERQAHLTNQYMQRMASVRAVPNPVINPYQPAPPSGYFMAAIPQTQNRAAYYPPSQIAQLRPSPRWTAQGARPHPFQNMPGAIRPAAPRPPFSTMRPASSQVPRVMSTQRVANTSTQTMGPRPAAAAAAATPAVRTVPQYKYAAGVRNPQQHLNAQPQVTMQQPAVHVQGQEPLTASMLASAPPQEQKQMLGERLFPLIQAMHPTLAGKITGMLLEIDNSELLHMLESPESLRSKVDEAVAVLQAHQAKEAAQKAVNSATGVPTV
CSC inhib: blocks cancer stem cells. inhibition, % at 7.5 µM. hit rate 1.1% among 300,000. AID 2717. cancer stem cell-like cells viability, luminescence;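 active means mean at 75% or more and at least half the replicates too; inconclusive means mean and replicates disagree; tested in HMLE shEcad cells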;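 further: 0% = median of negative and 100% = median of positive control wells; the first replicate is given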
UUG fidelity: alters start codon recognition fidelity in yeast. S. cerevisiae UUG-firefly luciferase reporter, luminescence/redox ratio. activity score, % at 18.7 µM. hit rate 0.13% among 350,000. AID 602363;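 active means replicate mean at a twofold rise or more, about +100% in these data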;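 further: firefly luciferase made from a UUG start codon reports start codon fidelity; reporter light over untreated wells divided by growth signal over untreated wells; some hits fall short of that in this replicate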
MT1-MMP act inh RFP: second read-out of MT1-MMP act inh, no call of its own (marks repeat the call); RFP signal change, %; measured here: RFP expression control read;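 0 = vehicle wells; hits needed this value within 50% of zero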
* = called active by the depositor; i = inactive; ? = inconclusive; · = not tested or not shown; & = joins results of further samples.

SMILES	Rce1 inh	eIF4H FP inh	MT1-MMP act inh	MT1-MMP act inh RFP	HIV Env fusion	PABP FP inh	CSC inhib	UUG fidelity
CC(C(=O)c1ccccc1)n1c(N2CCOCC2)nc2c1c(=O)n(C)c(=O)n2C (configuration not stated)	i	4	6	6	·	-8	-15	9
O=C(NCc1ccncc1)C1COc2ccccc2O1 (configuration not stated)	i	7	4	0	·	0	·	-1
COc1ccc(CC(=O)NNC(=O)c2ccc(SCc3cc(F)ccc3F)c([N+](=O)[O-])c2)cc1	i	-1	0	3	·	-2	-9	-8
Cc1nn(C)c(NC(=O)c2ccc(Cl)cc2)c1Cl	i	11	-3	-6	15	6	-4	-7
CC(=O)Nc1ccc(S(=O)(=O)NC(=O)C23CC4CC(CC(C4)C2)C3)cc1	i	-3	0	3	-7	19	-6	-17
CCn1c(C(O)c2ccc3c(c2)OCO3)nc2ccccc21 (configuration not stated)	i	1	0	-1	·	2	11	-21
CC(=O)c1cccc(NC(=O)Cc2cccs2)c1	i	10	0	3	-27	6	·	-8
CCCCNS(=O)(=O)CCNCc1ccco1	·	·	1	4	17	·	·	-22
COc1ccc(C(=O)NC(=O)CSc2nc3nc(C)cc(C)n3n2)cc1	·	·	0	-6	·	·	-10	-16
O=C(O)c1cc(NN=Nc2ccc(Br)cc2)cc([N+](=O)[O-])c1	i	4	4	3	-2	5	0	·
O=c1cc(-c2ccc(Br)cc2)[nH][nH]1	i	-3	1	-1	-5	-2	-13	·
O=C(Nc1ccc(Br)cc1Cl)c1ccc2c(=O)n3c(nc2c1)CCC3	i	·	1	-1	-16	·	3	-3
Clc1ccc(-c2cn3cc(Cl)ccc3n2)cc1	i	-10	0	-1	-180	3	5	·
CCC(=O)c1cc2c(cc1NC(=O)C(C)C)OCCO2	i	-3	3	2	·	-8	-5	-6
COc1ccc(C(CNC(=O)c2cccnc2SC)N2CCOCC2)cc1 (configuration not stated)	i	-1	-4	-4	·	10	-8	-9
CC1=CCC(C(=O)N/N=C/c2cccs2)C(c2ccc(F)cc2)C1 (configuration not stated)	i	-16	0	-1	·	-1	5	-11
CCOc1ccc(NC2=NC(C)(C)N=C(N)N2)cc1	i	-11	0	3	·	-6	-6	·
CCC(C(=O)NCCCN1CCOCC1)n1c2ccccc2c2nc(=O)cc(C)n21 (configuration not stated)	i	4	-1	1	-1	2	-6	-17
CCS(=O)(=O)N1Cc2ccccc2CC1C(=O)OCC(=O)Nc1ccc(C)cc1 (configuration not stated)	i	6	0	4	·	8	-7	-8
CCOC(=O)N1CCN(C(=S)NC(=O)c2ccc(F)cc2)CC1	·	8	·	·	-1	-7	-7	·
Cc1nc2ncccn2c1-c1csc(Nc2cccc(C(=O)O)c2)n1	i	-1	3	5	18	20	2	-15
COc1ccc(OC)c(S(=O)(=O)N2CCN(c3ccccn3)CC2)c1	i	11	0	0	·	2	8	-7
CC1CCCN(C(=O)COC(=O)Cc2ccc(Cl)cc2)C1 (configuration not stated)	i	-4	-1	0	-2	8	-4	·
CC[C@H](C)Cc1cn([C@@H](CCCN=C(N)N)C(=O)NCCCCCCCCCCC(=O)N2CCNCC2)nn1	i	·	0	6	28	·	-13	-1
O=C(COC(=O)CNC(=O)c1ccc(Cl)cc1Cl)NC1CCCCCCC1	i	·	-1	4	·	·	-8	-13
CCS(=O)(=O)N1CCN(c2ccccc2)CC1	i	0	-4	2	-7	6	-18	-15
Cc1cccc(NC(=O)c2cccc(S(=O)(=O)Nc3c(C)n(C)n(-c4ccccc4)c3=O)c2)c1	·	·	-3	1	-11	·	·	4
O=C(N/N=C/c1cccs1)c1cc(C2CC2)nc2ccccc12	i	10	-9	-16	·	2	45	·
CCOC(=O)/C=C/C(=O)Nc1ccc(S(=O)(=O)Nc2c(C)cc(C)cc2C)cc1	i	-7	3	3	-6	-1	44	·
CCN(C(=O)CSc1nc2ccccc2n1CC(C)C)c1c(N)n(Cc2ccccc2)c(=O)[nH]c1=O	·	·	-1	0	1	·	·	9
Cc1[nH]c(-c2ccc(F)cc2)cc1C(=O)N1CCN(c2ccc(Cl)cc2)CC1	i	9	2	-7	19	21	22	-3
Cc1ccccc1OCCCC(=O)Nc1ccc(S(=O)(=O)Nc2onc(C)c2C)cc1	i	11	2	2	-18	15	·	-32
O=C(CNC(=O)c1cccs1)N/N=C/c1ccc(O)cc1O	i	30	-6	-3	20	7	-3	·
CNC(=S)N(CCCN(C)C)Cc1cc2cc3c(cc2[nH]c1=O)OCCO3	i	-1	-1	2	5	2	2	-17
Cc1ccnc2c1ccc1c(C)ccnc12	·	·	12	-10	·	·	111*	-62
COc1cc(/C=N/NC(=O)c2ccncc2)ccc1OCC(=O)Nc1ccccc1	i	11	·	·	-34	7	-6	-18
O=C(NCC(=O)N(Cc1cccs1)C(C(=O)NC1CCCC1)c1ccco1)c1cccs1 (configuration not stated)	i	-1	-3	-4	-187	-2	·	-5
CCN(CC)S(=O)(=O)c1ccc(C(=O)NCc2nnc(SCC(=O)OC)n2C)cc1	·	-9	1	4	8	-4	·	·
S=C(Nc1ccc(Br)cc1Cl)N1CCC2(CC1)OCCO2	i	-5	2	4	-3	-6	-8	·
COc1ccc(OC)c(NC(=O)C(Sc2ccccc2)c2ccccc2)c1 (configuration not stated)	i	4	-6	-13	·	10	-18	·
O=C(CSc1nc2scc(-c3ccccc3)c2c(=O)[nH]1)N1CCCCC1	i	11	7	1	-2	-10	-7	-13
COCCNC(=O)CN(C(=O)CCC(=O)Nc1cc(C)on1)c1ccccc1C	i	0	0	2	0	-2	-15	-24
COc1ccc(CN(C(=O)c2cc3ccccc3oc2=O)C2CCCCC2)cc1OC	i	0	-2	3	-53	12	-6	27
CCOC(=O)N1CCN(C(=O)CSc2nc(-c3cccc(C)c3)ns2)CC1	i	-5	-1	-6	-34	-1	-9	-11
Clc1ncc(CSc2ccccc2)s1	i	-3	0	2	-61	-5	2	-52
CN(C)S(=O)(=O)c1ccc(C(=O)Nc2ccccc2F)cc1	i	12	-2	-1	·	-4	-5	-13
CCc1c(C)c2ccc(O)c(CN(C)C)c2oc1=O	?	-8	-1	5	28	22	-7	-17
COc1ccc(N2CCN(CCNS(=O)(=O)c3cccc4nsnc34)CC2)cc1	·	3	-1	-4	·	-1	·	20
COc1ccc(NC(=O)CC(C)c2ccccc2)c([N+](=O)[O-])c1 (configuration not stated)	i	5	3	3	28	-2	13	·
COc1cc(/C=C(/NC(=O)c2ccccc2Cl)C(=O)O)cc(OC)c1OC	i	-2	1	2	·	6	-6	·
C=CCn1c(SCC(=O)Nc2cc(OC)c(NC(=O)c3ccco3)cc2OC)nnc1-c1ccncc1	i	4	-1	0	-16	7	4	-2
CN(C)CCN(CC1CCCN(Cc2ccccc2F)C1)C(=O)c1ccc(F)cc1 (configuration not stated)	i	-2	2	0	7	18	-4	-9
CS(=O)(=O)N1CCc2cc(S(=O)(=O)N3CCCCC3)ccc21	i	1	0	0	12	6	-1	·
C=CCn1c(C)cc(C(=O)CSc2nnc3c(Cl)cc(Cl)cn23)c1C	i	-10	4	1	·	0	-14	-43
COC(=O)[C@@]1(C)[C@H]2C(=O)N(C)C(=O)[C@H]2[C@H]2CN=C(SCc3ccccc3)N21	·	·	3	1	-12	·	·	-15
Clc1ccccc1CNCC1CCCO1 (configuration not stated)	i	-8	4	6	-6	1	0	-16
CC(C)c1ccc2[nH]c3nc(SCC(=O)N4CCOCC4)nnc3c2c1	i	-1	5	0	-15	-8	3	·
Cc1ccc2[nH]c(=O)c(CN(Cc3ccco3)S(=O)(=O)c3c(C)ccc4nsnc34)cc2c1	i	1	-14	-4	·	15	-16	-9
Cc1ccc(/C=C/C(=O)c2ccc(N3CCOCC3)cc2)s1	·	16	-4	-4	-103	9	8	·
CCCNC(=O)c1cc(C2CCCN(C(=O)c3ccc(NC(C)=O)cc3)C2)on1 (configuration not stated)	·	·	2	1	-27	·	·	3

Next results follow.
SMILES	Rce1 inh	eIF4H FP inh	MT1-MMP act inh	MT1-MMP act inh RFP	HIV Env fusion	PABP FP inh	CSC inhib	UUG fidelity
Cn1nc(C(=O)NNC(=O)C2CSC3(C)CCC(=O)N23)c2ccccc2c1=O (configuration not stated)	i	·	-2	3	-7	·	-8	·
COc1ccc(NC(=O)C2CCCN2C(=O)NC2CCCCC2)cc1 (configuration not stated)	i	3	-1	2	-21	8	0	-2
CC(C)(C)OC(=O)N1CCC[C@H]1c1nnc(SCc2ccccc2)o1	i	-1	2	-1	18	-4	-13	76
O=C(CSc1nnc2ccccn12)NCc1ccco1	i	-19	0	0	-8	35	-12	·
CC(=O)c1cccc(NC(=O)c2ccc(-c3c(C)noc3C)c3ccoc23)c1	·	·	14	1	-47	·	·	10
O=c1[nH]cnc2nn(-c3ccccc3)nc12	i	18	1	4	-87	17	3	-38
Cc1ccc(Cl)cc1N1CCN(Cc2nnnn2C2CCCCC2)CC1	i	10	-4	-11	·	16	5	-2
Cc1cc(N2CCN(c3ncccn3)CC2)nc2c(C)cccc12	i	3	-3	-4	24	3	24	-2
C=CCSc1nnc(NC(=O)c2ccc(N3CCCC3=O)cc2)s1	·	·	-1	-4	-20	·	-4	-7
CCCCC(=O)N(C)c1c(CC)nc2c(OCc3cc(Cl)cc(Cl)c3)cccn12	·	·	-14	-23	29	·	·	1
C=CCc1ccc(OCC(O)CN2CCc3ccccc3C2)c(OC)c1 (configuration not stated)	i	0	5	2	20	8	8	-6
O=C(C1CCCCC1)N(Cc1nc2sc3c(c2c(=O)[nH]1)CCCC3)Cc1cccs1	i	-3	3	-2	·	6	31	14
COC(=O)CNC(=O)C(NC(=O)c1ccc(Cl)cc1)C(C)C (configuration not stated)	i	-3	-3	-1	11	0	-13	-8
CC(C)(C)OC(=O)N1CCC(c2c(C(=O)NC3CC3)cnn2-c2ccccc2)CC1	i	-6	-1	1	-6	7	-17	6
CCn1c(-c2cc3ccccc3cc2O)n[nH]c1=S	i	-12	6	1	-54	-14	4	-12
COc1ccccc1S(=O)(=O)N(C)C[C@@H]1OCc2cn(nn2)CCCC(=O)N([C@@H](C)CO)C[C@H]1C	·	·	3	7	-13	·	·	1&-8
NNc1nc2sc3c(c2c(=O)n1C1CCCCC1)CCN(Cc1ccccc1)C3	i	47	1	2	6	-8	48	-23
CC1=CC(=O)C=C(C)C1=NOS(=O)(=O)c1ccccc1	i	0	-1	-4	·	8	·	-51
COc1ccc(N2CCN(Cc3cc(=O)c(OCC(=O)NC4CCCC4)co3)CC2)cc1	i	·	3	-4	·	·	-6	-25
COc1ccc(C(CNC(=O)c2cccc(S(=O)(=O)Nc3ccc(F)cc3)c2)N2CCCCC2)cc1 (configuration not stated)	·	·	2	2	4	·	·	-23
CC(C)(CNS(=O)(=O)c1ccc2ccccc2c1)N1CCOCC1	·	·	2	5	0	·	·	-22
CC(=O)Nc1ccc(NC(=O)C2CCCN2/C=C/C(=O)C(F)(F)F)cc1 (configuration not stated)	i	1	0	0	7	1	-14	·
CCCC[C@H]1COCCS(=O)(=O)N1Cc1cccc([N+](=O)[O-])c1	i	-7	5	0	16	-3	-2	-4
O=C(N/N=C/c1ccccn1)c1cccc(NC(=O)c2ccccc2Cl)c1	i	15	5	6	5	7	-3	·

Laid out differently: entries from further up.
| SMILES | Rce1 inh | eIF4H FP inh | MT1-MMP act inh | MT1-MMP act inh RFP | HIV Env fusion | PABP FP inh | CSC inhib | UUG fidelity |
| --- | --- | --- | --- | --- | --- | --- | --- | --- |
| NNc1nc2sc3c(c2c(=O)n1C1CCCCC1)CCN(Cc1ccccc1)C3 | i | 47 | 1 | 2 | 6 | -8 | 48 | -23 |
| CCCC[C@H]1COCCS(=O)(=O)N1Cc1cccc([N+](=O)[O-])c1 | i | -7 | 5 | 0 | 16 | -3 | -2 | -4 |

Not all compounds are listed (hit frequency here may not be typical).
